# UCH37 DUB inh – blocks the human deubiquitinase UCH37; Q9Y5K5; purified proteasome/UCH37, Ub-AMC cleavage fluorescence; inhibition, % (concentration not given with the values); 0.33% of 330,000 active;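 active = mean of two replicates above 20%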;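 note: 0% = compound-free wells with enzyme and 100% = wells lacking proteasome; stock transfer was 100 nL into about 20 µL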
#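 assay system = human UCH37 enzyme supplied as purified proteasome complex | amount = proteasome at 0.15 nM in the dispensed enzyme solution | schedule = 30 min compound-proteasome preincubation then 25 min substrate reaction, room temperature | measured by = fluorescence, ex 355 nm, em 460 nm | benchmarks = no-proteasome wells (full inhibition) and compound-free wells (no inhibition)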
# FGF22 binding – shifts melting point of recombinant human FGF22 | Q9HCT0 | recombinant FGF22 thermal shift, SYPRO orange fluorescence; percent of sucrose octasulfate shift, DMSO zero | calls only at 9.99 µM | 1.5% of 340,000 active;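 active = melting point raised past a set limit in the mean and every replicate; inconclusive = no clear call; three in four hits are not shown here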
# Ecoli growth – E. coli growth inhibition. Escherichia coli growth, OD600, 23 h; active compounds read low. OD600 absorbance (no concentration beside the values). 0.21% of 330,000 active. AID 1053175;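 active = OD600 absorbance below the run mean of sample wells minus 3.6 SD, in any replicate, cut at about 0.56 in these data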;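 note: stock transfer was 300 nL into about 60 µL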
# Vif TR-FRET – HIV-1 Vif–A3G interaction blockers – biochemical, TR-FRET, GST-Vif 1-94, biotin-A3G peptide, dose response retest, primary screen (AID 1117319). TR-FRET GST-Vif / biotin-A3G peptide binding; higher % means a stronger effect; test concentration not given here; strong numbers were not always called active. one-dose inhibition, %; IC50 in µM for titrated hits. 0.57% of 260,000 active;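 active = above the screen mean plus three standard deviations and confirmed in dose response; inconclusive = results disagree or hit not tested in dose response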;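 note: Vif residues 1-94 fused to GST binding biotinylated APOBEC3G peptide 110-148; 0% = full assay without inhibitor and 100% = GST in place of GST-Vif; retest series ran down from 100 µM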
# HNF4A DNA FP – change in binding of human HNF4 alpha to DNA; P41235; 0.3% of 360,000 active; AID 1224865; HNF4a-FITC DNA binding, fluorescence polarization, 1 h; activity change, % at 10 µM; in the data active = activity change above about 30%, passing the limit was not always enough;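 note: controls were the assay level and a saturating level of protein; the project sought stronger binding though the title names inhibitors; some compounds called inactive have numbers as strong as hits; positive values seem to mean higher polarization but the record does not say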
# Target sequence (P41235 whole entry, looked up): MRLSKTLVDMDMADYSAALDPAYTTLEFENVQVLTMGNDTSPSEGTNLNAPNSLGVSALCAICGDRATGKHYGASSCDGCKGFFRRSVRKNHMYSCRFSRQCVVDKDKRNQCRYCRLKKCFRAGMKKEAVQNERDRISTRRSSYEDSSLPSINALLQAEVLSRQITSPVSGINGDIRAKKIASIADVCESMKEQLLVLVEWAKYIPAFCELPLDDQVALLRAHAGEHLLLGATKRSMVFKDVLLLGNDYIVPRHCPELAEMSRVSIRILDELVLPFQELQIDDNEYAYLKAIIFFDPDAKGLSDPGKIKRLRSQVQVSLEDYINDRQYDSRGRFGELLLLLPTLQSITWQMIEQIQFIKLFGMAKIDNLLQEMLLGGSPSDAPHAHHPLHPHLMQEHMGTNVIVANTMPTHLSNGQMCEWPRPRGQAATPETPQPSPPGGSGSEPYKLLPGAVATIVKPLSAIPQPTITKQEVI
# RanGTP-Imp inh – disruptors of Ran-importin-beta complex formation – biochemical, FRET, CFP-Ran, YFP-importin-beta, homogeneous, primary screen | inhibition, % (test concentration not listed) | 1.1% of 300,000 active | AID 2216 | cell-free CFP-Ran/YFP-importin-beta FRET ratio;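 active = most replicates above 15%; inconclusive = exactly half above 15%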;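 note: 0% = DMSO wells and 100% = Ran loaded with GDP instead of GTP; wells of about 40 µL received 100 nL stock; the first replicate is given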
# MLL AF4-AF9 inh – MLL-AF4/AF9 protein interaction inhibition. P42568. 0.47% of 350,000 active. inhibition, % at 10 µM. AID 651704. AlphaScreen, biotin-AF4 peptide binding to FLAG-AF9;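 active = every replicate reaching a set inhibition limit, whatever the replicate mean, cut at about 25% in these data; inconclusive = mean inhibition reaches that limit but some replicates miss it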;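 note: 0% = plate neutral control median and 100% = total signal loss; the record names both 10 and 1 µM as test concentration; the first replicate is given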
# Target sequence (P42568 whole entry, looked up): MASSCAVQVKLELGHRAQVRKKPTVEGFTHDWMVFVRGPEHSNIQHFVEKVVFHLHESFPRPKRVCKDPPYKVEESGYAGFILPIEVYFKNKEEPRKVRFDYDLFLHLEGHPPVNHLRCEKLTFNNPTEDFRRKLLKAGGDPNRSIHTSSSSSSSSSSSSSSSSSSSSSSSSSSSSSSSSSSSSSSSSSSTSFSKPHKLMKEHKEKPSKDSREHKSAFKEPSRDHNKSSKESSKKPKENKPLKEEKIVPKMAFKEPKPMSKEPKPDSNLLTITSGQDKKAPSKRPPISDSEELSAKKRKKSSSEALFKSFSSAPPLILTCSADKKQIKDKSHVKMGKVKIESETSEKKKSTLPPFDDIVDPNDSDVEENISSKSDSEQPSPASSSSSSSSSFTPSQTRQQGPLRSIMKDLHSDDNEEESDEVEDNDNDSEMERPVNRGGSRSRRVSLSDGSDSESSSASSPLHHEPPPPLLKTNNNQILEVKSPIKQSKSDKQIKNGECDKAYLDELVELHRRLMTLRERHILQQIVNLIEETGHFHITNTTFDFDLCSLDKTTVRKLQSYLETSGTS
# The depositor's hits bear a star; i = inactive; ? = inconclusive; . = no result given.
Molecule	UCH37 DUB inh	FGF22 binding	Ecoli growth	Vif TR-FRET	HNF4A DNA FP	RanGTP-Imp inh	MLL AF4-AF9 inh
CC(C)CN(C(=O)C1=COCCO1)c1c(N)n(Cc2ccccc2)c(=O)[nH]c1=O	.	i	.	.	4.6	.	0.3
CCC(CC)N1CCN(CCc2ccccc2)C(CCO)C1 (stereo unspecified)	-0.3	.	0.69	23%	1.6	-3.0	-12
Cc1nc2c(-c3ccc(F)cc3)c(C)nn2c(N2CCOCC2)c1C	0.0	.	0.72	1%	1.2	-2.5	.
CC(=O)Nc1ccc(C(=O)OCC(=O)c2ccc(F)cc2)cc1	1.4	i	0.65	.	-1.2	-1.2	1.5
O=C(CSc1ccccc1)Nc1nccs1	3.1	i	0.73	0%	-1.4	1.0	-2.5
CCOc1ccc(NS(=O)(=O)c2ccc(C(=O)NCc3ccccn3)cc2)cc1	-0.6	i	0.7	.	1.0	.	-12
O=C(Nc1ccc(-c2nc3ccccc3o2)cc1)c1cc(-n2cnnc2)ccc1Cl	-23	.	0.72	-2%	-0.1	-2.1	.
O=C(c1cccc(S(=O)(=O)N2CCCC2)c1)N1CCN(Cc2ccccc2)CC1	-1.0	i	0.63	.	1.4	.	1.6
CCN1CCN(c2ccc(S(=O)(=O)N3CCCCC3)cc2NC(=O)c2ccc(F)cc2)CC1	5.4	i	0.71	7%	5.1	-2.9	1.9
Cc1ccc(CC(=O)Nc2ccc(S(=O)(=O)N3CCOCC3)cc2)cc1	0.1	i	0.67	.	2.9	1.5	0.5
Cc1ccc(CN(c2ccc(C(=O)Nc3cccnc3)cc2)S(C)(=O)=O)cc1	3.0	.	0.66	9%	3.3	-0.1	.
O=C(COc1ccccc1)N1CCN=C1SCc1cccc(F)c1	2.7	i	0.71	-1%	0.8	-2.8	2.7
CC(C)Oc1cccc(C(=O)N2CCCC2)c1	2.2	i	0.7	.	-2.4	.	7.4
O=C(C1CC(c2cccc(Br)c2)=NO1)N1CCc2ccccc2C1 (stereo unspecified)	0.1	.	0.69	-6%	1.5	-11	.
Cc1cc(N/N=C/c2ccc([N+](=O)[O-])o2)nc2ccccc12	.	i	.	3%	21	0.2	4.3
CC(=O)NC(Cc1cccc(F)c1)C(=O)NC1CCN(c2ncccc2[N+](=O)[O-])CC1 (stereo unspecified)	0.5	i	0.7	9%	-1.0	1.3	1.2
COc1ccc(Cc2c(-c3cccc(Cl)c3)nc3ccc(Br)cn23)c(C)c1	.	i	.	.	21	.	9.2
COc1ccc(C2Nc3ccccc3C(=O)N2NS(C)(=O)=O)cc1OC (stereo unspecified)	-318	i	0.68	.	-3.5	1.2	-0.9
CCn1c(=O)cc(OCC(=O)Nc2cccc(C)n2)c2ccccc21	1.4	.	0.76	3%	-0.6	2.5	.
CCCOc1ccc(OCCn2nc(C(=O)O)c3ccccc3c2=O)cc1	-1.0	i	0.64	-2%	2.0	3.6	1.3
Cc1ccc(N2C(=O)CCC2(C#N)c2ccccc2)cc1 (stereo unspecified)	1.1	i	0.65	.	-4.0	-4.8	0.1
CCN(CC)C(=O)CSc1ncnc2c1cnn2Cc1ccccc1	1.8	.	0.78	3%	2.8	-0.6	.
COc1cc(/C=N/NC(=O)c2ccc(CSc3nc4ccccc4[nH]3)cc2)cc(OC)c1OC	.	.	.	?	4.1	0.2	.
Cc1ccc(COCC(CC(C)C)N2CCN(C(=O)c3cccc(C(F)(F)F)c3)CCC2=O)cc1 (stereo unspecified)	1.6	i	0.68	.	1.5	-1.8	0.5
Cc1cccc(NC(=O)C2CCCN2C(=O)Oc2ccccc2)c1 (stereo unspecified)	-1.1	.	0.62	2%	0.6	0.5	.
Cc1cc(C)c(NC(=O)CCc2c(C)noc2C)c(C)c1	1.4	i	0.69	-8%	0.1	.	-2.3
Cc1c(/C=N/n2cnnc2)c2ccccc2n1CCOc1ccccc1	.	.	.	26%	-2.6	-0.3	.
COc1cccc(C(=O)O/N=C(\N)CS(=O)(=O)c2ccccc2)c1	2.3	i	0.76	.	0.6	2.7	-8.3
O=C(CSc1n[nH]c(=O)n1Cc1ccco1)Nc1ccccc1Cl	1.7	i	0.61	.	0.8	2.1	2.1
CCOP(=O)(OCC)C(NC(=O)Nc1cccc(Cl)c1)C(N)=O (stereo unspecified)	2.4	i	0.73	28%	0.4	4.1	-1.7
O=C(Nc1ccc(F)cc1F)c1ccc2nc(N3CCOCC3)sc2c1	-3.9	i	0.76	.	2.6	1.6	6.7
CS(=O)(=O)N(CC(=O)NCCSCc1cccc(Cl)c1)c1ccc(F)cc1	5.1	i	0.65	-4%	-4.9	4.2	-0.3
CC(=O)NCCC(=O)N1CCCC(N2CCN(c3cccc(Cl)c3)CC2)C1 (stereo unspecified)	2.5	i	0.66	.	1.3	5.1	4.2
CC1CCC(C(C)C)C(OC(=O)C2=C3c4ccccc4S(=O)(=O)N3CC2)C1 (stereo unspecified)	-136	.	0.75	-8%	1.2	5.0	.
COc1cccc(C(=O)OCC(=O)c2c[nH]c3ccccc23)c1O	-0.9	i	0.67	.	-0.8	4.6	-1.7
Cc1csc2c(=O)sc(NC(=O)c3ccc(F)cc3)nc12	-26	i	0.65	-247%	-1.7	-4.1	-2.9
O=c1cc(CN2CCN(S(=O)(=O)c3ccc4c(c3)OCCO4)CC2)c2ccc(O)cc2o1	-429	.	0.62	2%	-2.0	46*	.
CC(=O)Nc1ccc(S(=O)(=O)N=S(C)(C)=O)cc1	0.0	i	0.72	8%	2.9	-3.6	-17
COc1ccc(C)cc1S(=O)(=O)N(CC(N)=O)Cc1ccccc1	3.7	.	0.72	0%	-1.0	1.3	.
Cc1ccc2nc(SCC(=O)N3N=C(c4cccs4)CC3c3ccc(F)cc3)nc(=O)n2c1 (stereo unspecified)	.	i	.	.	4.5	.	4.0
O=C(CCCC(=O)c1ccccc1)NCCc1ccccc1	1.9	i	0.63	-1%	-1.0	-3.7	1.8
Cc1ccc2nc(-c3ccccc3)cc(C(=O)NCC(c3ccco3)N(C)C)c2c1 (stereo unspecified)	-33	i	0.61	10%	-0.1	-2.2	7.0
S=C(NCCc1ccccc1)Nc1ccccc1	-0.1	i	0.64	.	-3.0	-0.8	6.0
CCCCN1C(=O)C(CC(=O)NCCCN(C)C)CC(C(=O)N2CCOCC2)=C1C (stereo unspecified)	.	i	.	.	5.1	.	-1.7
O=C(O)c1cc(C2CC2)nc2ccccc12	-0.2	.	0.69	-2%	-4.6	-1.6	.
CC(C)C(=O)Nc1c2c(nc3c1CCC3)CCCC2	3.3	.	0.73	2%	-2.7	2.2	.
O=C1CCCN1CN1CCCCC1	-0.3	.	0.69	16%	-0.7	-2.9	.
CC(C)CNC(=O)C(=O)Nc1cc2c3c(c1)C(C)C(=O)N3CCC2 (stereo unspecified)	1.0	i	0.67	5%	1.8	-1.7	-1.1
Cc1cc(C)cc(N(CC(=O)N2CCCCCC2)S(C)(=O)=O)c1	0.7	i	0.72	-3%	1.0	-4.2	-17
COc1ccc(-c2c(C#Cc3ccsc3)c3cc(-c4ccc5[nH]ccc5c4)ccc3n2C)cc1	-296	i	0.74	.	8.7	.	-4.4
Cc1nc2scc(C)n2c(=O)c1S(=O)(=O)NCC1CCN(Cc2ccc(F)cc2)CC1	-106	i	0.67	.	1.9	7.3	2.4
COc1ccc(-c2cc(C(=O)NCc3ccco3)c3ccccc3n2)cc1	-163	i	0.63	4%	1.4	-3.1	-2.3
Cc1cc(NCCCN2CCOCC2)n2nc(C)c(-c3ccc(F)cc3)c2n1	-7.5	.	0.67	-2%	-1.0	1.6	.
CC(=O)Nc1ccc(SCC(=O)Nc2ccccc2Oc2ccccc2)cc1	2.3	.	0.64	.	4.1	-3.3	.
CCN(CC)S(=O)(=O)c1cccc(NC(=O)/C=C/c2cccc([N+](=O)[O-])c2)c1	2.9	i	0.69	73%	1.0	1.5	-0.1
CCOC(=O)c1ccc(S(=O)(=O)Nc2nc3cc(S(=O)(=O)NC4=NCCCCC4)ccc3s2)cc1	6.7	i	0.7	-9%	-6.1	2.7	-2.7
CCOC1(C)OCC(=O)[C@]2(CCC3C4CCC5=CC(=O)C=CC5(C)C4C(=O)CC32C)O1 (stereo partly specified)	-1.3	.	0.61	-1%	0.9	2.9	.
COc1ccc(S(=O)(=O)N(CC(=O)N2CCN(C)CC2)c2ccccc2)cc1OC	-0.1	.	0.7	0%	1.0	?	.
CCc1cccc(C)c1NC(=O)CC1Oc2ccc(C)cc2NC1=O (stereo unspecified)	0.7	i	0.68	-1%	2.7	1.9	-5.1
CC(C)Oc1ccc(C2CC(=O)N(c3cccc(Br)c3)C2=O)cc1 (stereo unspecified)	-2.5	i	0.63	1%	2.1	-0.9	-1.2

# Remaining list, next part
Molecule	UCH37 DUB inh	FGF22 binding	Ecoli growth	Vif TR-FRET	HNF4A DNA FP	RanGTP-Imp inh	MLL AF4-AF9 inh
COc1cccc(CNC(=O)c2ccc(S(=O)(=O)N3CCCCC3)cc2)c1	.	i	.	.	2.5	.	1.5
O=C(CSc1ccccc1)Nc1cccnc1	4.3	.	0.69	24%	8.0	-3.6	.
Cc1ccc(C(=O)NCC(=O)NC23CC4CC(CC(C4)C2)C3)cc1	1.7	i	0.68	.	-1.4	-1.8	-1.7
CC(C)(C)N(Cc1ccccc1)C(=O)COC(=O)CNC(=O)c1ccco1	.	i	.	.	0.7	4.0	-8.6
CCCS(=O)(=O)NC(=O)C1(C)CCN(C(=O)c2cc(C)on2)C1 (stereo unspecified)	.	i	.	.	-0.8	.	-2.3
c1ccc(CSc2ccc(-c3ccc4c(c3)OCO4)nn2)cc1	1.8	.	0.7	.	0.1	-2.3	.
O=C1CC(=O)Nc2cc(S(=O)(=O)N3CCN(c4cccc(C(F)(F)F)c4)CC3)ccc2N1	-2.2	i	0.74	.	3.7	0.9	-3.4
CC(Oc1ccccc1F)C(=O)NNC(=O)CCNC(=O)c1ccccc1Cl (stereo unspecified)	4.0	i	0.7	-1%	-2.8	-4.5	-0.9
CS(=O)(=O)N(Cc1ccccc1)c1ccc(C(=O)Nc2ccccc2Sc2ccccc2)cc1	-1.5	i	0.65	.	0.4	-2.0	1.3
COc1cc(OC)c(C2=NOC(C(=O)O)C2)cc1Cl (stereo unspecified)	7.7	.	0.68	-8%	3.5	?	.
O=C(COC(=O)c1cccc(Br)c1)NC1CCCCCCC1	.	i	.	-1%	0.8	.	-3.4
CN(C)S(=O)(=O)c1cc(NC(=O)CN2CCN(c3ccccc3)CC2)ccc1Cl	4.7	.	0.73	.	-3.1	2.5	.
Cc1cc(Nc2ccccc2)nn1C(=O)c1ccc([N+](=O)[O-])cc1	-2.1	.	0.76	27%	-0.6	0.8	.
Cc1ccccc1OCC(=O)NNC(=O)C1CC(=O)N(c2ccc3c(c2)OCCO3)C1 (stereo unspecified)	0.2	i	0.67	.	3.7	.	-0.7

# Compound activity as filed in PubChem BioAssay.

# A portion of the library; the hit share may differ from the screen's.
